Rango release inh = inhibitors of RanGTP-induced Rango-importin beta complex dissociation; O95149+P62826; Biochemical FRET Rango-importin beta, RanGTP-induced dissociation; Potency, µM (titrated, usually from 46.1 µM), for inactives: at the highest dose activity change, negative = inhibition; 340,000 compounds, 0.071% hits; AID 540253; active means falling FRET ratio curve, often poorly fitted, with flat reads before Ran was added; inconclusive means other falling curves, or compound fluorescence or quenching; inactive means flat or rising ratio curve;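 also: potency is read from the fitted curve at half-maximal effect; % of control where 0% means no effect; nearly all actives have a fitted effect of over 45% in size; -100% = wells without RanGTP and RCC1; the record marks most hits as doubtful in a second field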
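Compounds sat 5 min at room temperature with 0.1 uM Rango biosensor plus 0.25 uM importin beta, then FRET pre-read. RanGTP-RCC1 (0.6 uM Ran, 2mM GTP, 0.2 uM RCC1) added for 45 min, and the CFP/YFP post-read measured blocked complex dissociation.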
miR-21 FLuc = raises the signal of a miR-21 reporter | HeLa miR-21 FLuc reporter, luciferase, 48 h | Potency, µM (highest dose often 38.3 µM), inactives show top-dose reporter change, positive = more light | 340,000 tested, under 10 active | AID 2288; active = well fitted rising curve with a large enough effect; inconclusive = small, poorly fitted or top-dose-only effect; inactive = no such curve, though single readings can be large or run the other way;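 also: % of control where 0% means no effect; miR-21 action dims this reporter so a rising signal means less miR-21 action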
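HeLa cells stably expressing CMV-driven firefly luciferase with a downstream miR-21 binding sequence, endogenously expressing miR-21, were treated with titrations (up to about 40uM final) for 48 hours at 37 degree Celsius. Luciferase luminescence was read after lysis.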
Rango-impB inh = prevents formation of the Rango-importin beta complex | Potency, µM (top dose mostly 92.2 µM), for the others: at the highest dose inhibition of complex formation | 340,000 compounds, 0.031% hits | Rango CFP/YFP FRET sensor + importin beta, 45 min | Q14974; active = rising FRET ratio curve, often small or poorly fitted; inconclusive = mostly compound fluorescence or quenching in the first reads; inactive = flat curves in all reads;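 also: potency is read from the fitted curve at half-maximal effect; 0% = DMSO wells and 100% = buffer wells lacking importin beta; nearly all actives have a fitted effect of over 15% in size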
Target sequence (Q14974 whole entry, looked up): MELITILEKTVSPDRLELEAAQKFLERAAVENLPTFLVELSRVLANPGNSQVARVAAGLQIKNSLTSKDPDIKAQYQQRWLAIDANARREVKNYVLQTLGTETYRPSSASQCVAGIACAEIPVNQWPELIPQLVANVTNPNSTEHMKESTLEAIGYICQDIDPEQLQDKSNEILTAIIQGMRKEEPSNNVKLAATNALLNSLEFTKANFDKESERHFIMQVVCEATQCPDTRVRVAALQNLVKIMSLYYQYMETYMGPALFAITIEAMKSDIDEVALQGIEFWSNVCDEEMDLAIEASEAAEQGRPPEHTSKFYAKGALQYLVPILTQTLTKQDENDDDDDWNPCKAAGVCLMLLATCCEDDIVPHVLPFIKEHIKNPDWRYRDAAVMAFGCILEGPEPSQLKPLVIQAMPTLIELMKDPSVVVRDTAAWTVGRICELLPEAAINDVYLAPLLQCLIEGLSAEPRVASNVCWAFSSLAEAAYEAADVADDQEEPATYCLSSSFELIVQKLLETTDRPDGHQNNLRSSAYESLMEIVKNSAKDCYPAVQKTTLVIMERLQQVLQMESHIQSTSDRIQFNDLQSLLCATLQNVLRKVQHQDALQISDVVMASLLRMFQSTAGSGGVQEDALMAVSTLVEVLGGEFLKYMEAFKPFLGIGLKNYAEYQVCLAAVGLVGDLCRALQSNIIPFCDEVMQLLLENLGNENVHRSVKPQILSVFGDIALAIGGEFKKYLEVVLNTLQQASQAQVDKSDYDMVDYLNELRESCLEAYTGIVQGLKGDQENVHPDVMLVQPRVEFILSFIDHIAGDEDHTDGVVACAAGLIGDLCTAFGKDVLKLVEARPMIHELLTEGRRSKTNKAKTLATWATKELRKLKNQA
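FRET biosensor Rango (snurportin 1 IBB between N-terminal EYFP and C-terminal Cerulean), 50 nM in PBS/1 mM DTT/0.02% Tween-20/0.1% BSA, preincubated 5 min RT with compound; 0.125 microM importin beta added, 45 min RT, CFP/YFP FRET ratio read.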
GLA inh pH 4.5 = alpha-galactosidase A (human) inhibition, pH 4.5; purified enzyme, 4-MU-alpha-Gal fluorescence, pH 4.5; activity change, negative = inhibition, % at 105 µM; 230,000 tested, under 10 active; AID 1467; inconclusive = small, poorly fitted or top-dose-only inhibition, or a rising curve; inactive = flat fitted curve, though single readings scatter; no compound was filed as active;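 also: 0% = full activity with enzyme and -100% = basal without enzyme; dose as in the result columns while the protocol names 77 µM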
Starred values were filed as active, the others as inactive; ? = inconclusive; . = not tested or not shown; & = joins results of further samples; [ ] = dose if it differs, or a comment. Only part of the results is shown. The share of hits here may be higher or lower than overall.

SMILES	Rango release inh	miR-21 FLuc	Rango-impB inh	GLA inh pH 4.5
CCOc1ccc(NC(=S)N(Cc2ccc(N(C)C)cc2)Cc2ccco2)cc1	10.2%	8.2%	-3.3%	-12.1
COc1ccc(NC(=O)Nc2nnc(-c3ccncc3)s2)cc1	0.8%	-9.4%	0.1%	-7.8
CN(C)S(=O)(=O)c1ccc(C(=O)NCc2ccc3[nH]c4c(c3c2)CCCC4)cc1	?	-9.5%	?	-1.5
O=C(O)c1cccc(Nc2ccc([N+](=O)[O-])c3nonc23)c1	-1.1%	-0.6%	5.6%	.
COC(=O)C1=C(C)NC(=S)NC1c1ccc(OCC(=O)N2CCCCC2)c(OC)c1 (configuration not stated)	-12.0%	-0.4%	0.4%	.
Cc1cc(C)n(CCc2nc(-c3ccc(-c4ccccc4)cc3)cs2)n1	-6.7%	-34.8%	0.5%	-4.0
CC(=O)Nc1ccn(-c2ccccc2)n1	0.3%	-40.8%	?	-5.1
Cc1c(NC(=O)CSc2nnnn2-c2ccc(F)cc2)c(=O)n(-c2ccccc2)n1C	-12.9%	-0.7%	3.4%	3.7
O=C(Nc1ccc(Cl)cn1)c1cc(S(=O)(=O)N2CCCCC2)ccc1Cl	-14.9%	0.6%	1.6%	3.6
CCOc1ccc(CCNC(=O)COC(=O)/C=C/c2ccccc2OC)cc1OCC	5.4%	.	0.7%	.
CCOC(=O)CNC(=O)c1c(C)nn(C)c1Cl	-1.4%	-3.5%	-2.0%	-6.6
Cc1csc2nc(O)c(C(=O)NC3CCCCC3)c(=O)n12	-2.3%	.	-1.3%	.
CCN(CC)c1nc(N)c([N+](=O)[O-])c(NCCO)n1	14.3%	-12.7%	2.3%	-10.2
O=C1c2ccccc2C(=O)N1N(c1ccccc1)c1ccccc1	-0.4%	.	-0.7%	.
COc1cnc(SCc2ccc(Cl)cc2Cl)nc1Cl	-0.4%	-3.7%	0.0%	-11.8
CNC(=S)N(CCc1ccc(OC)c(OC)c1)Cc1cc2c(C)cc(C)cc2[nH]c1=O	2.2%	-6.7%	-1.3%	-0.1
C=CCNC(=O)c1ccc(-c2cccc([N+](=O)[O-])c2)o1	-21.6%	-56.5%	?	-0.8
COc1ccc2c3n([n+]([O-])c2c1)CCN=C3c1ccc(C)cc1	2.8%	.	0.3%	.
COC(=O)C1=C(C(C)=O)C(c2ccc(C(=O)OC)cc2)n2nnnc2N1 (configuration not stated)	3.1%	-2.6%	-1.3%	-0.1
Cc1ccc(S(=O)(=O)N2CCC(C(=O)O)CC2)cc1	5.9%	-0.5%	3.5%	1.6
CCN(CC)C(=O)CN(c1ccc2c(c1)OCO2)S(C)(=O)=O	-0.4%	0.3%	-1.7%	7.8
Cc1c(C(=O)OCC(=O)Nc2ccc3c(c2)OCO3)cccc1[N+](=O)[O-]	0.3%	-8.0%	3.0%	-0.4
Cc1ccc2c(c1)N(CC(=O)NC1CCCc3ccccc31)C(=O)CO2 (configuration not stated)	8.7%	-0.9%	-2.2%	6.9
COc1ccc(C2CC(c3cccs3)=NN2S(C)(=O)=O)cc1OC (configuration not stated)	-3.0%	-14.5%	?	9.8
CCCN(CCC)CC(=O)Nc1cccc2c1OCO2	18.7%	-4.9%	?	1.7
CCOc1c2c(nc3ccc(Cl)cc13)CCC2	-7.3%	-0.2%	-1.5%	0.6
CCOc1ccc(OCC)c(NS(=O)(=O)c2ccc3c(c2)n(C)c(=O)c(=O)n3C)c1	-9.0%	0.4%	1.8%	-5.5
CCOc1ccc(NC(=S)NCCCN2CCN(c3ccc(OC)cc3)CC2)cc1	6.0%	13.8%	3.2%	0.6[21.1 µM]
COc1ccccc1N1CCN(C(=O)CSc2nnc3n2C(C)(C)Cc2ccccc2-3)CC1	1.0%	?	-0.5%	2.5
CCN(CC)c1ccc(CN(C(=O)c2cc(OC)c(OC)c(OC)c2)C2CCS(=O)(=O)C2)cc1 (configuration not stated)	0.8%	0.5%	-0.2%	0.4
COc1ccc(-c2cnc3ccccc3n2)cc1NC(=O)CNC(=O)c1ccccc1	-7.1%	-62.1%	4.8%	.
Cc1ccc(C)c(S(=O)(=O)NC(C)CCc2ccccc2)c1 (configuration not stated)	12.3%	-0.2%	-4.0%	.
CCOC(=O)c1cc(C(C)C)sc1NC(=O)COC(=O)CCS(=O)(=O)c1ccccc1	1.5%	-12.9%	-4.7%	-17.0
ClCc1nnc(-c2ccccc2)o1	3.0%	9.2%	?	-14.8
O=C(Nc1cccc(S(=O)(=O)N2CCCC2)c1)c1ccccc1OC(F)F	12.0%	-0.3%	3.7%	.
O=C(NNC1CC(=O)N(c2ccc(Br)cc2)C1=O)c1ccco1 (configuration not stated)	15.1%	-1.8%	-0.2%	-14.2
COc1ccc(NC(=O)CC(Cc2ccc(Cl)cc2)C(=O)O)cc1 (configuration not stated)	-0.3%	3.1%	1.8%	.
C/C(=N\Nc1ccc([N+](=O)[O-])cc1)c1ccc(C#N)cc1	?	-5.5%	?	-1.8
CCC1(C)Cc2ccccc2C(=O)N1 (configuration not stated)	1.8%	4.0%	-3.5%	-4.8
CN(c1ccc(OCc2ccc([N+](=O)[O-])cc2)cc1)S(=O)(=O)c1ccccc1	3.6%	3.9%	-4.7%	.
O=C(Nc1ncccc1O)c1ccc2c(c1)OCO2	-8.6%	.	4.7%	.
C/C(=N\Nc1ccc([N+](=O)[O-])cc1[N+](=O)[O-])c1ccc(-n2nncc2C(C)(C)C)cc1	11.0%	1.1%	0.0%	-3.4
C=CCn1c(NCc2ccccc2O)nc2ccccc21	-3.2%	-48.2%	-3.3%	.
N#Cc1ccccc1OCC(=O)OCC(=O)c1ccc[nH]1	9.4%	.	-0.1%	.
CS(=O)c1ccccc1COC(=O)Nc1ccccc1 (configuration not stated)	2.4%	2.8%	3.5%	-1.8
Cc1ccc(Cn2c(C)c3cnn(CC(=O)NCc4ccccn4)c(=O)c3c2C)cc1	-26.4%	4.9%	2.7%	.
Cc1nn(C)cc1CNC(=O)CCC(=O)O	7.0%	1.9%	-1.0%	13.9
COc1ccc2c(c1)CC/C(=C/c1ccncc1)C2=O	-2.2%	9.8%	2.4%	-4.7
C=CCNC(=O)Cn1nnc(-c2ccc(-c3ccc(OC)cc3)cc2)n1	-9.2%	-30.2%	1.0%	.
COC(=O)C1CCN(c2ccc([N+](=O)[O-])cc2)CC1	-6.3%	-2.9%	-2.0%	-5.3
Cc1ccc(CNC(=O)C2CCN(C(=O)Nc3ccccc3)CC2)cc1	-1.0%	8.5%	-0.3%	.
COC(=O)c1ccc(-c2ncc(-c3cccc4ccccc34)o2)cc1	-16.5%	-14.8%	?	?
CC(OC(=O)c1cccc(S(=O)(=O)N2CCOCC2)c1)C(=O)NC1CCCCC1C (configuration not stated)	-2.1%	.	-0.5%	.
Cc1cc2ccccn2c1C(=O)c1nc(NCc2ccco2)ncc1Cl	-6.7%	4.4%	0.8%	-4.6
CCOc1c(Cl)cc(C(=O)Nc2ccccc2-c2ccccc2)cc1Cl	-2.1%	-3.4%	1.3%	-1.9
CCCOc1ccc(N2C(=O)CC(SCCN)C2=O)cc1 (configuration not stated)	11.2%	-34.7%	-0.9%	-4.9
O=C(Nc1nccs1)c1ccc(S(=O)(=O)NCc2cccs2)cc1	-17.9%	9.1%	-3.4%	9.6
CCOc1ccc(/C=N/n2c(C)nc3ccccc3c2=O)cc1	0.3%	-7.3%	-3.3%	.
CCOc1ccc(-n2cc(-c3ccc(OC)c(OC)c3)[nH]c2=S)cc1	-1.6%	-0.4%	0.8%	2.4
N#Cc1nc(-c2cccc(Cl)c2)oc1N1CCC(C(N)=O)CC1	-3.8%	-2.2%	0.1%	.

Following part.
SMILES	Rango release inh	miR-21 FLuc	Rango-impB inh	GLA inh pH 4.5
Cc1cccc(Nc2nc3c(c(=O)n(C)c(=O)n3C)n2CC(O)CO)c1 (configuration not stated)	1.6%	-1.6%	-0.1%	-2.3
CCc1ccc(OC(C)C(=O)N(Cc2ccco2)C2CCS(=O)(=O)C2)cc1 (configuration not stated)	-3.6%	-3.3%	-0.9%	.
CCCCOC(=O)C1=C(C)NC2(O)c3ccccc3C(=O)C12O (configuration not stated)	-14.7%	-16.7%	-1.2%	-2.6
CC(C)CC(=O)NC(=S)N1CCCCCC1	3.8%	-6.2%	0.0%	-1.2
COc1cccc(OC)c1C(=O)n1nc(C)cc1C	-10.6%	0.9%	-6.7%	7.8
COc1ccccc1Nc1cc(C(=O)NC2CCCC2)c2ccccc2n1	?	4.7%&-6.8%	?	.
Cc1oc2c(Cl)c(Cl)c(O)c(CN(C)C)c2c1C(=O)c1ccc(Cl)cc1	0.2%	27.5%	-0.1%	.
O=C(CC(=O)NCCc1ccccc1)NCCc1ccccc1	-18.5%	4.7%	0.0%	.
CCCCn1nnnc1SCC(=O)Nc1ccc(F)cc1	-11.1%	-10.6%	-6.8%	0.1
CCOC(=O)C(Cc1ccccc1)NC(=O)Cn1nnc(-c2ccc(SC)cc2)n1 (configuration not stated)	15.9%	-0.9%	3.3%	-12.9
COC(=O)C1CCC(C)(C(=O)Nc2ccccc2)C1(C)C (configuration not stated)	-4.4%	-3.0%	-0.1%	6.0
C=CC1C(OC2OC(CO)C(O)C(O)C2O)OC=C(C(=O)OC)C1CC1CC(=O)CC(CC(=O)CCc2ccc(O)cc2)O1 (configuration not stated)	5.7%	0.9%	1.3%	0.9
CCN(CC)c1ccc(NC2=C(Cl)C(=O)c3ccccc3C2=O)cc1	-13.5%	-49.5%	0.6%	-10.7
CC(=O)NCC1CCN(C(=O)C2CCC(=O)N(CCc3cccc(F)c3)C2)CC1 (configuration not stated)	0.4%	-0.1%	4.3%	.
Oc1ccc(-c2nc3c4c(ncn3n2)-c2ccccc2CC42CCCC2)cc1	-8.7%	0.4%	-4.1%	-1.5
CC(C)C[C@H](NC(=O)c1nc[nH]c1C(=O)NC1CCN(C(=O)OC(C)(C)C)CC1)C(=O)OC(C)(C)C	-7.3%	10.8%	6.3%	-9.9
Cn1nc(CC(=O)NCc2cccc3ccccc23)c2ccccc2c1=O	-16.5%	-1.1%	0.1%	-8.0
O=C(CC1(O)C(=O)N(Cc2ccccc2)c2ccccc21)c1ccc2c(c1)OCO2 (configuration not stated)	2.0%	1.0%	3.0%	-27.9
CCOC(=O)c1ccc(NS(=O)(=O)c2ccc3c(c2)CCCN3C(C)=O)cc1	-6.0%	-4.6%	-4.4%	-2.4
O=S(=O)(Nc1ccncc1)c1ccc(Cl)c(Cl)c1	33.0%	1.3%	1.1%	.
COc1ccc(CCC(=O)Nc2ccc(N3CCOCC3)c(S(=O)(=O)Nc3ccc(OC)cc3)c2)cc1	10.7%	.	1.5%	.
COc1cccc(CNC(=O)CCc2nnc3ccc(NCCCN4CCCC4=O)nn23)c1	18.2%	-1.0%	0.1%	.
COCCn1c(-c2cc(OC)c(OC)c(OC)c2)nc2oc3cc(OC)ccc3c(=O)c2c1=O	-9.9%	-0.4%	?	-7.4
